Compound activity: PubChem BioAssay, National Center for Advancing Translational Sciences (NCATS)
Rango release inh: inhibitors of RanGTP-induced Rango-importin beta complex dissociation. O95149+P62826. Biochemical FRET Rango-importin beta, RanGTP-induced dissociation. Potency, µM (highest dose often 46.1 µM), inactives show at the top dose activity change, negative = inhibition. hit rate 0.071% among 340,000. AID 540253; active means falling FRET ratio curve, often poorly fitted, with flat reads before Ran was added; inconclusive means other falling curves, or compound fluorescence or quenching; inactive means flat or rising ratio curve;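 note: potency is the fitted concentration of half-maximal effect; % of control where 0% means no effect; nearly all actives have a fitted effect of over 45% in size; -100% = wells without RanGTP and RCC1; the record marks most hits as doubtful in a second field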
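Rango FRET biosensor (snurportin-1 IBB flanked by N-terminal EYFP and C-terminal CFP10) at 0.1 uM, with 0.25 uM importin beta in PBS, 1mM DTT, 0.02% Tween-20, 0.1% BSA. 0.6 uM Ran, 2mM GTP and 0.2 uM RCC1 were then added for 45 min at room temperature. Inhibition read as loss of FRET rise.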
miR-21 reporter: miR-21 reporter, rising signal; HeLa miR-21 FLuc reporter, luciferase, 48 h; Potency, µM (titrated, usually from 38.3 µM), for the others: at the highest dose reporter change, positive = more light; 340,000 tested, under 10 active; active = well fitted rising curve with a large enough effect; inconclusive = small, poorly fitted or top-dose-only effect; inactive = no such curve, though single readings can be large or run the other way;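 note: % of control where 0% means no effect; miR-21 action dims this reporter so a rising signal means less miR-21 action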
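Compounds were titrated across several concentrations (up to approximately 40 uM) and incubated 48 hours with HeLa miR-21-FLuc reporter cells (miR-21 target sequence downstream of FLuc, endogenous miR-21). Readout was firefly luciferase luminescence after lytic detection reagent.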
GLA inh pH 4.5: inhibitors of human alpha-galactosidase A at pH 4.5. P06280. purified enzyme, 4-MU-alpha-Gal fluorescence, pH 4.5. activity change, negative = inhibition, % at 105 µM. 230,000 tested, under 10 active. AID 1467; inconclusive = small, poorly fitted or top-dose-only inhibition, or a rising curve; inactive = flat fitted curve, though single readings scatter; no compound was filed as active;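 note: 0% = full activity with enzyme and -100% = basal without enzyme; dose as in the result columns while the protocol names 77 µM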
Target sequence (P06280 whole entry, looked up): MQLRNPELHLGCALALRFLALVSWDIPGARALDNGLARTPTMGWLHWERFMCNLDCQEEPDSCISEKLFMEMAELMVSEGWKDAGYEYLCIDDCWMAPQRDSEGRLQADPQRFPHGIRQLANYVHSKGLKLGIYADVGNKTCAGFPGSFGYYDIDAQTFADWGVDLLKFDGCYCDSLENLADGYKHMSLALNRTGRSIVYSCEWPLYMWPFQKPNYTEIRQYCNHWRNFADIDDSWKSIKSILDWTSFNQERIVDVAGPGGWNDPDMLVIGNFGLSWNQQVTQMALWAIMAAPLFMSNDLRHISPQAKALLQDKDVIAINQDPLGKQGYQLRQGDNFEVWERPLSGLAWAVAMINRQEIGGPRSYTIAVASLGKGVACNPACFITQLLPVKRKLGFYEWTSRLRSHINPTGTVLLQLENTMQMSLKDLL
Rango complex inh: Rango-importin beta binding inhibition; Rango CFP/YFP FRET sensor + importin beta, 45 min; Potency, µM (titrated, usually from 92.2 µM), without a hit: at the top dose inhibition of complex formation; hit rate 0.031% among 340,000; AID 540263; active = rising FRET ratio curve, often small or poorly fitted; inconclusive = mostly compound fluorescence or quenching in the first reads; inactive = flat curves in all reads;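 note: potency is the fitted concentration of half-maximal effect; 0% = DMSO wells and 100% = buffer wells lacking importin beta; nearly all actives have a fitted effect of over 15% in size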
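FRET biosensor (snurportin 1 IBB flanked by EYFP and cerulean), 50 nM, with compound 5 min, then 0.125 microM importin beta in PBS, 1 mM DTT, 0.02% Tween-20, 0.1% BSA. CFP/YFP ratio read after 45 min at room temperature; pre-read flags interference.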
* = called active by the depositor; ? = inconclusive; . = not tested or not shown; & = joins results of further samples.

cpd	Molecule	Rango release inh	miR-21 reporter	GLA inh pH 4.5	Rango complex inh
1	COc1cc(C(=O)Nc2cc(S(=O)(=O)N3CCOCC3)ccc2N2CCOCC2)cc(OC)c1C	2%	.	.	1.1%
2	CCC(C)NC(=O)c1c(C)cc(=O)oc1C (stereo not drawn)	-5%	-1%	-1	12%
3	O=C(CN1CCc2ccccc21)NCc1ccc2c(c1)OCO2	29%	-32%	1	5.7%
4	COCCNC(=S)N(Cc1cccnc1)Cc1ccc(OC)c(OC)c1	0%	-6%	1	1.1%
5	Cc1c(C(=O)NC2=NCCS2)oc2ccccc12	1%	-21%	0	0.1%
6	CCOC(=O)c1c(S(=O)(=O)NCC(=O)N2CCN(c3ccc(F)cc3)CC2)c(C)n(C)c1C	23%	2%	.	3.1%
7	Cc1sc(NC(=O)C2CCCCC2C(=O)O)c(C(N)=O)c1-c1ccccc1 (stereo not drawn)	0%	-25%	5	2.7%
8	Cc1cc(C)cc(NC(=O)C2CCCN2C(=O)Oc2ccccc2)c1 (stereo not drawn)	1%	-4%	-11	-2.8%
9	Cc1ccc(Cn2c(Sc3nccc(C)n3)nc3c2c(=O)[nH]c(=O)n3C)cc1	7%	-12%	11	1.7%
10	N#Cc1cc2cc3ccccc3nc2n2c(=O)c3ccccc3nc12	-17%	-5%	-12	?
11	Cc1cc(C)c(S(=O)(=O)Nc2nnc(C)s2)c(C)c1	-4%	-2%	1	?
12	COc1cc(/C=C/C(=O)O)cc(S(=O)(=O)Nc2ccc3nc(C)sc3c2)c1OC	0%	-5%	-1	-2.7%
13	CC(C)(C)NC(=O)Cn1cnc([N+](=O)[O-])n1	4%	-3%	9	-1.3%
14	CCC1C(O)=C(c2ccccn2)C(=N)N1c1ccccc1 (stereo not drawn)	-14%	-6%	9	-1.0%
15	CCc1nnc(SCC(=O)Nc2ccc(C(C)=O)cc2)nc1CC	-8%	-15%	0	0.3%
16	O=C(OCCNc1ccc(C(F)(F)F)cc1[N+](=O)[O-])c1cc2ccccc2oc1=O	-9%	0%	-3	0.3%
17	Cc1ccc(S(=O)(=O)Nc2ccc(C(=O)NCc3ccccn3)cc2)cc1	6%	-8%	.	3.4%
18	COc1ccc(OC)c(-c2nn(-c3ccccc3)cc2C(=O)NCC2CCCO2)c1 (stereo not drawn)	5%	.	.	0.0%
19	CC(=O)OC(c1nc2ccccc2c(=O)n1C1CC2(OC1=O)c1ccccc1N1C(=O)C(C)(C)N(O)C12)C(C)C (stereo not drawn)	6%	17%	-13	-3.6%
20	OC[C@@H](O)[C@@H](O[C@H]1O[C@H](CO)[C@@H](O)[C@H](O)[C@H]1O)[C@H](O)[C@@H](O)CO	25%	3%	3	-0.2%

Next part, overlapping the part above by four compounds.
cpd	Molecule	Rango release inh	miR-21 reporter	GLA inh pH 4.5	Rango complex inh
17	Cc1ccc(S(=O)(=O)Nc2ccc(C(=O)NCc3ccccn3)cc2)cc1	6%	-8%	.	3.4%
18	COc1ccc(OC)c(-c2nn(-c3ccccc3)cc2C(=O)NCC2CCCO2)c1 (stereo not drawn)	5%	.	.	0.0%
19	CC(=O)OC(c1nc2ccccc2c(=O)n1C1CC2(OC1=O)c1ccccc1N1C(=O)C(C)(C)N(O)C12)C(C)C (stereo not drawn)	6%	17%	-13	-3.6%
20	OC[C@@H](O)[C@@H](O[C@H]1O[C@H](CO)[C@@H](O)[C@H](O)[C@H]1O)[C@H](O)[C@@H](O)CO	25%	3%	3	-0.2%
21	CC(=O)C(CC(=O)N1CCCC1)C(=O)Nc1ccc(Cl)cc1 (stereo not drawn)	8%	.	.	-1.4%
22	Cc1sc2ncnc(Nc3ccc(N4CCOCC4)cc3)c2c1-c1ccccc1	-1%	-10%	-19	-4.4%
23	Cc1ccccc1C(=O)Nc1sc2c(c1C(=O)O)CCC2	-10%	23%	-15	-3.9%
24	CS/C(=N\S(=O)(=O)c1cccs1)Nc1ccc(F)c(Cl)c1	0%	-12%	-7	0.0%
25	Cc1ccccc1OCC(=O)NCCc1nc2ccccc2[nH]1	-13%	-10%	-2	-0.8%
26	O=C(NCSc1ccnc(SCNC(=O)c2ccccc2)n1)c1ccccc1	0%	-5%	-1	1.9%
27	O=C(OCC(=O)N1CCOCC1)c1ccc(F)cc1Cl	-5%	-25%	.	4.1%
28	COc1ccc(N2C(=S)N=C(Nc3ccccc3)C23CCCCC3)cc1	-13%	-1%	1	0.4%
29	NNC(=O)c1c(O)c2cccc3c2n(c1=O)CCC3	-9%	-2%	.	1.3%
30	C/C(=N/Nc1ccc(C(=O)O)cc1)c1ccc(O)c(O)c1O	-4%	-62%	1	-0.5%
31	O=C(Nc1ccc(F)cc1)Oc1ccc[nH]c1=O	8%	-10%	-1	7.4%
32	CCOc1ccc(Oc2nc(Nc3ccc(C)cc3)nc(N(C)C)n2)nn1	-2%	1%	-7	-0.6%
33	Cn1cc([N+](=O)[O-])c(C(=O)N/N=C/c2ccc3c(c2)OCO3)n1	-14%	-17%	4	-4.2%
34	CN(C)C(=O)c1ccc(NC(=O)c2cccc(S(=O)(=O)N3CCN(Cc4ccccc4)CC3)c2)cc1	15%	.	.	-1.6%
35	CC(/C=N/O)Cc1ccc2c(c1)OCO2 (stereo not drawn)	-8%	-10%	-5	-0.3%
36	COc1ccc(OC)c(NS(=O)(=O)c2ccc(Br)s2)c1	.	25%&21%	-3	.
37	Cc1nnc(SC(C)C(=O)Nc2ccc3ccccc3c2)[nH]c1=O (stereo not drawn)	0%	-1%	.	2.5%
38	COc1ccc(NC(=O)CN(C)C(=O)Cn2cnc3c2c(=O)n(C)c(=O)n3C)cc1	23%	.	.	-1.7%
39	CC(Sc1nnc(N)s1)c1ccccc1Cl (stereo not drawn)	0%	-19%	5	6.5%
40	COc1cc2c(cc1OC)C(=O)CC(C)S2 (stereo not drawn)	-7%	-1%	-4	?

Single values from the list.
cpd 29 in miR-21 reporter is entered as -2%
cpd 25 in GLA inh pH 4.5 is entered as -2
cpd 31 in Rango complex inh is entered as 7.4%
cpd 24 in GLA inh pH 4.5 is entered as -7

(continued)
cpd	Molecule	Rango release inh	miR-21 reporter	GLA inh pH 4.5	Rango complex inh
41	O=C(Nc1cccc(C(=O)N2CCCC2)c1)C1CC1	-10%	.	.	?
42	CCCN(CCC)S(=O)(=O)c1cc2c(cc1Br)CCN2C(=O)CC	-8%	.	.	7.5%
43	COc1ccccc1CN1CC(C(=O)NCCC2=CCCCC2)CCC1=O (stereo not drawn)	8%	-6%	.	1.7%
44	Cc1ccc(SCc2cc(-c3ccc(Cl)cc3)on2)cc1	-13%	-11%	-14	-2.9%
45	C=CCOCCN(C)C1=NS(=O)(=O)c2cc([N+](=O)[O-])ccc21	0%	1%	1	-4.6%
46	CCN(CC)CCCN1C(=O)C(O)=C(C(=O)c2ccc(C)o2)C1c1cccs1 (stereo not drawn)	.	-3%	4	.
47	Cc1ccc(NC(=O)CNC(=O)c2sc3ccccc3c2Cl)nc1	-1%	.	.	-0.4%
48	O=C(CSc1n[nH]c(=O)[nH]c1=O)NC1CCCCC1	-6%	-1%	10	-1.0%
49	CC(=O)n1cc([C@@H]2C=C(C(=O)Nc3ccccc3)O[C@H](OCc3ccc(CO)cc3)C2)c2ccccc21	-7%	14%	-18	-1.1%
50	Cc1ccc(NC(=O)CS(=O)(=O)c2c[nH]c3ccccc23)c(C)c1	-9%	-1%	-6	6.0%
51	COCC(C)n1c(C)cc(C(=O)COC(=O)c2c(C)nn(-c3ccccc3)c2C)c1C (stereo not drawn)	8%	-2%	-8	-1.4%
52	COc1ccc2[nH]cc(CCNC(=O)Cc3ccc(F)cc3)c2c1	-6%	-6%	.	?
53	CC(C)(C)NC(=O)C(c1ccccn1)N(C(=O)c1csnn1)C1CCCCC1 (stereo not drawn)	-2%	-3%	7	2.2%
54	CCCCNC(=O)Cn1cnc2c(cnn2-c2ccc(C)cc2)c1=O	-10%	-1%	.	-3.0%
55	Cn1ccc(-c2ccccc2)c(C#N)c1=O	16%	-4%	5	3.5%
56	Cc1ccc2nc(SCC(=O)NC3CCCc4ccccc43)[nH]c2c1 (stereo not drawn)	-1%	25%	-9	-6.5%
57	COc1cccc(Nc2nc(CN3CCOCC3)nc3sc4c(c23)CCCC4)c1	2%	-1%	1	3.8%
58	CC1(C(=O)OCC(=O)c2c[nH]c3ccccc23)CC1(Cl)Cl (stereo not drawn)	7%	-53%	-3	-0.5%
59	O=c1[nH]c(N2CCOCC2)nc2c1CCCC2	-29%	-5%	2	-4.1%
60	Cc1cc(S(=O)(=O)N2CCC(N3CCCCC3)CC2)ccc1-n1cnnn1	-7%	-6%	5	2.6%

Carrying on:
cpd	Molecule	Rango release inh	miR-21 reporter	GLA inh pH 4.5	Rango complex inh
61	CCc1nnc(NC(=O)C2CCCN2C(=O)Nc2ccccc2)s1 (stereo not drawn)	21%	-1%	-21	1.6%
62	C=CCNC(=O)c1sc(=S)n(-c2ccc(C(=O)OCC)cc2)c1N	-2%	0%	-5	-0.8%
63	O=C(c1cccnc1)N1CCN(Cc2ccc3c(c2)OCO3)CC1	-3%	0%	0	-2.9%
64	Cc1ccc(S(=O)(=O)NC2(C(F)(F)F)NC(=O)N(C)C2=O)cc1 (stereo not drawn)	-10%	0%	7	-4.2%
65	Cc1ccc(S(=O)(=O)N2CCN(C(C)C(=O)Nc3ccccc3-c3ccccc3)CC2)cc1 (stereo not drawn)	0%	-1%	1	?
66	CC1CCN(CC(=O)Nc2nc(-c3ccccc3)cs2)CC1	-1%	-7%	.	1.6%
67	COc1ccc(-c2nc(C#N)c(NC(C)c3ccccc3)o2)cc1OC (stereo not drawn)	19%	-17%	-1	-0.1%
68	Nn1cc(-c2ccccc2)nc1SCC(=O)N1CCN(S(=O)(=O)c2ccc3ccccc3c2)CC1	14%	0%	-10	-2.4%
69	CCCCN1C(=O)c2ccc(C(=O)N(C)CC(=O)Nc3ccc(OCC)c(OCC)c3)cc2C1=O	-1%	.	.	0.1%
70	O=C(O)Cn1cc(CN2CCOCC2)c2ccccc21	-9%	0%	.	-1.4%
71	Cc1ccc(C(=O)NCC(=O)Nc2cccc(C(F)(F)F)c2)cc1	-5%	-5%	-1	-0.2%
72	Cc1onc(-c2c(Cl)cccc2Cl)c1C(N)=S	1%	-1%	6	1.2%

Structures from the list above with a cyano group, in the order listed:
cpd	Molecule	Rango release inh	miR-21 reporter	GLA inh pH 4.5	Rango complex inh
10	N#Cc1cc2cc3ccccc3nc2n2c(=O)c3ccccc3nc12	-17%	-5%	-12	?
55	Cn1ccc(-c2ccccc2)c(C#N)c1=O	16%	-4%	5	3.5%
67	COc1ccc(-c2nc(C#N)c(NC(C)c3ccccc3)o2)cc1OC (stereo not drawn)	19%	-17%	-1	-0.1%

Some of the compounds tested; rates above refer to the full screens.
